Source: PubChem (Johns Hopkins Ion Channel Center)
KCNQ2 inh: KCNQ2 potassium channel inhibitors, primary screen, cell-based, CHO-K1, FluxOR thallium flux, B-score (AID 2156). O88943. 20 min; active compounds read low; only compounds with negative scores are shown here; some inactives read as strong as hits. B-score at 10 µM. 310,000 tested, 1.1% active;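 active = fluorescence ratio B-score at most minus 3 library SDs, with starting brightness B-score within 2 library SDs, cut at about -5.5 in these data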
Target sequence (O88943 whole entry, looked up): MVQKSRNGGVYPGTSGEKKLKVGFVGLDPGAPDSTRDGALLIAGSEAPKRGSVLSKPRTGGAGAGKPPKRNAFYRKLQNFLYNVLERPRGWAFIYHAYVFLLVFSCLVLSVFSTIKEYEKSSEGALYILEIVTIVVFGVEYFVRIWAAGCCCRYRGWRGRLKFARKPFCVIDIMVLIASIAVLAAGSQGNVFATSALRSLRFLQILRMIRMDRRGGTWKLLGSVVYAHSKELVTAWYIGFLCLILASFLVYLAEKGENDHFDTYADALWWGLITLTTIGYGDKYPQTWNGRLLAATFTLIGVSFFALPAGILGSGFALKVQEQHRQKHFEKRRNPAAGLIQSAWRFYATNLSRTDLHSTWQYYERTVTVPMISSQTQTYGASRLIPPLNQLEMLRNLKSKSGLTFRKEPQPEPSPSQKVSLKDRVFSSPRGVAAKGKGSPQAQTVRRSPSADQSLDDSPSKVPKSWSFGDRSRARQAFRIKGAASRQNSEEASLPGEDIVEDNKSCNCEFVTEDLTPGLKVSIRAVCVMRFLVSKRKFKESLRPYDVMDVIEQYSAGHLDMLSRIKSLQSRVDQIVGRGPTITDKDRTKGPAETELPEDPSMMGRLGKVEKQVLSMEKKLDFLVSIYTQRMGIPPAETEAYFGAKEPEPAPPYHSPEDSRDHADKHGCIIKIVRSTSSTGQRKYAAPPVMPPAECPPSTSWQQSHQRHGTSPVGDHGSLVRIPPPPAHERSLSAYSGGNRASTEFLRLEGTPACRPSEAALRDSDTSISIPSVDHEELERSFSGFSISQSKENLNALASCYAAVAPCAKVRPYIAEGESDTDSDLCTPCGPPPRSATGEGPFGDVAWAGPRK
KCNQ2 inh baseline: recorded beside KCNQ2 inh, whose call it bears; B-score; measured here: initial fluorescence intensity artifact check;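 brightness before thallium and not channel activity; 0 = typical well and far values either way flag optical interference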
The depositor's hits bear a star; i = inactive. This is a subset, so the mix of outcomes need not match the whole.

Results follow in this order: KCNQ2 inh	KCNQ2 inh baseline
COC(=O)c1ccccc1NC(=O)CSc1nnnn1C1CCCCC1
  i	1.3
Cc1cc(NC(=O)CSc2nnc(N)s2)c([N+](=O)[O-])cc1C
  i	-0.8
Cc1nn(-c2ccccn2)c2c1C(c1ccccc1Cl)C1=C(N2)c2ccccc2C1=O (stereo not drawn)
  i	-1.5
CCC(C)(C)NC(=O)/C=C/c1cc(OC)c(OC)c(S(=O)(=O)N2CCc3ccccc32)c1
  i	-0.42
COc1ccc(NCc2nnc(SCc3ccccc3)n2-c2ccc(OC)cc2)cc1
  i	-0.19
COC(=O)c1cc2sc(Cl)cc2n1CC(=O)NCC1CCCO1 (stereo not drawn)
  i	2.4
NC(Cc1ccccc1)C(=O)N1CCCCC1 (stereo not drawn)
  i	2.3
COC(=O)CCCCC1SCC2NC(=O)NC21O (stereo not drawn)
  i	-0.83
Cc1ccccc1C(=O)Nc1ccccc1C(=O)NCC(C)C
  i	-0.27
COc1ccccc1C(=O)Nc1ccnn1C1CCN(CCCC2CCCC2)CC1
  i	0.77
CC(NS(=O)(=O)c1ccc(CCC(=O)NCC2CCCO2)cc1)c1ccccc1 (stereo not drawn)
  i	-1.4
COc1cc(CN2CCN(CC#Cc3ccccc3)CC2CCO)cc(OC)c1 (stereo not drawn)
  i	0.9
Cc1ccc(C(NC(=O)NCCCN2CCOCC2)=C(Cl)Cl)cc1F
  i	2.8
COc1ccc(-c2cc(C(=O)N3CCN(c4ccccc4OC)CC3)no2)cc1
  i	1.5
NS(=O)(=O)c1ccc(NC(=O)c2cccc(N3C(=O)c4ccccc4C3=O)c2)cc1
  i	-0.77
CCOc1ccccc1C(=O)N1CCN(C(c2ccccc2)c2ccccc2)CC1
  i	-1.6
O=C(N/N=C/c1cc2ccccc2nc1Cl)c1ccncc1
  i	1.5
Cc1cc(=O)oc2cc(Oc3ncccc3[N+](=O)[O-])ccc12
  i	2.4
CCc1ccc2c(c1)C(=O)C(=O)N2CC(=O)Nc1ccc(NC(=O)c2ccccn2)cc1
  i	-0.9
COc1ccc(-c2cc(C(=O)N3CCN(c4ccccc4F)CC3)c3ccccc3n2)c(OC)c1
  -8*	-1.5*
COC(=O)C(NC(=O)CCc1c(C)nc2ncnn2c1C)C(C)C (stereo not drawn)
  i	0.6
O=C(Nc1c[nH]c(=O)[nH]c1=O)c1cc([N+](=O)[O-])cc([N+](=O)[O-])c1
  i	0.58
O=C(c1cc(COc2ccccc2)on1)N1CCCC(CN2CCOCC2)C1 (stereo not drawn)
  i	0.11
Cc1ccc[n+](CC(=O)c2ccc(Br)cc2)c1C
  i	1.4
CNC(=O)c1ccc(-c2ccc(Cl)c(Cl)c2)s1
  i	2.2
CC(C)Cn1c(S(=O)(=O)O)nc2ccccc21
  i	0.05
O=C(/C=C/c1ccco1)NC(=S)N1CCCCC1
  i	0.54
O=C(Nc1nc2ccc(S(=O)(=O)N3CCCC3)cc2s1)C1CCCCC1
  i	1.5
COCCN=C1N[C@@H](c2ccccc2)C(C(=O)OC)=C(C)N1Cc1ccccc1
  i	-1.3
CNS(=O)(=O)c1cccc(C(=O)OCC(=O)N2CCCC2)c1
  i	-0.65

Grouped by structure: the entries above with fluorine (2)
Results follow in this order: KCNQ2 inh	KCNQ2 inh baseline
Cc1ccc(C(NC(=O)NCCCN2CCOCC2)=C(Cl)Cl)cc1F
  i	2.8
COc1ccc(-c2cc(C(=O)N3CCN(c4ccccc4F)CC3)c3ccccc3n2)c(OC)c1
  -8*	-1.5*

Quoted from the entries so far for reference:
Results follow in this order: KCNQ2 inh	KCNQ2 inh baseline
O=C(Nc1nc2ccc(S(=O)(=O)N3CCCC3)cc2s1)C1CCCCC1
  i	1.5
COCCN=C1N[C@@H](c2ccccc2)C(C(=O)OC)=C(C)N1Cc1ccccc1
  i	-1.3
CNS(=O)(=O)c1cccc(C(=O)OCC(=O)N2CCCC2)c1
  i	-0.65

(listing goes on)
Results follow in this order: KCNQ2 inh	KCNQ2 inh baseline
Cc1onc(-c2c(F)cccc2Cl)c1C(=O)Nc1nnc(-c2ccccc2)s1
  i	0.06
COc1ccccc1N1C(=O)Cc2ccccc2C1=O
  i	-0.2
CNC(=O)COC(=O)c1ccc(-c2nc3ccccc3s2)s1
  i	-2.3
Cc1cccc(N2C(=O)CC(N3CCN(c4cccc(C(F)(F)F)c4)CC3)C2=O)c1 (stereo not drawn)
  i	0.34
Cc1c([N+](=O)[O-])cc(C(=O)Oc2ccc(Br)cc2C(=S)N2CCCCC2)cc1[N+](=O)[O-]
  i	-0.47
C/C(=N\NC(N)=S)C1C2C3CC4C5CC(C42)C1C53 (stereo not drawn)
  i	0.03
O=C(CSc1nnc(-c2ccccc2)n1-c1ccc(Cl)cc1)N/N=C/c1ccccc1C(=O)O
  i	-1.8
COc1ccc(CNC(=O)c2ccc(CS(=O)(=O)Cc3ccccc3F)o2)cc1
  i	-0.22
O=c1[nH]c2ccc(S(=O)(=O)N3CCN(C4CCCCC4)CC3)cc2[nH]c1=O
  i	-1
COc1ccc(C(=O)N/N=C\c2coc3ccccc3c2=O)cc1
  i	0.29
CCCn1c(C)cc(C(=O)CSc2nc3ccccc3c(=O)n2Cc2ccco2)c1C
  -6*	0.75*
COc1cccc(-c2nn(-c3ccc(C)cc3)cc2C(=O)NCC(c2cccs2)N2CCOCC2)c1 (stereo not drawn)
  -6.9*	1.8*
Fc1ccccc1-c1nc(NCc2ccco2)c2ccccc2n1
  i	-1.5
O=C(NCc1ccco1)C1c2ccccc2Oc2ccccc21
  i	-1.3
CCC(C)(C)n1nnnc1C(C(C)C)N(Cc1cccnc1)Cc1ccco1 (stereo not drawn)
  i	1.2
CCC(=O)N(Cc1cc(=O)[nH]c2ccccc12)C1CCCCC1
  i	-0.37
COc1ccc(NC(=O)CCNS(=O)(=O)c2ccc(Cl)c([N+](=O)[O-])c2)cc1S(N)(=O)=O
  i	0.28
S=C(NCc1ccco1)NCC(c1ccco1)N1CCCCC1 (stereo not drawn)
  i	-1
COC(=O)c1c(NC(=S)NNS(=O)(=O)c2ccc(OC)cc2OC)sc2c1CCCCCC2
  i	-0.39
COc1cc(OC)cc(C(=O)OCCCOC(=O)c2cc(OC)cc(OC)c2)c1
  i	-0.77
Cc1cc(C)c(OC2(c3ccccc3)OC(=O)c3ccccc32)c(C)c1 (stereo not drawn)
  i	-1.4
CCN(CC)c1ccc(/C=C/c2nc3ccccc3s2)cc1
  i	4.2
COc1cc2c(cc1OC)CN(S(=O)(=O)c1ccc3c(c1)OCCO3)CC2
  i	1.1
COc1cccc(-n2cc(CN(C)Cc3nc(Cc4cccc(F)c4)no3)cn2)c1
  i	-2.3
COc1ccc(CCNC(=O)c2cccc(Br)c2)cc1OC
  i	0.94
COc1c(Cl)cc(Cl)cc1/C=N/NC(=O)c1nnn(-c2nonc2N)c1CN1CCC(C)CC1
  i	0.64
COc1ccc(C2c3ccc4ccccc4c3Oc3ncn(CCN4CCOCC4)c(=N)c32)cc1OC (stereo not drawn)
  i	-0.36
O=C(c1cccc(N2C(=O)C3CC=CCC3C2=O)c1)N1CCCc2ccccc21 (stereo not drawn)
  i	0.04
O=C(NC1CCCCCC1)C1Cc2ccccc2CN1C(=O)c1ccco1 (stereo not drawn)
  i	2
CCC(=O)N1N=C2CC(C)(C)OCC2C1c1ccccc1 (stereo not drawn)
  i	1.2

Compound profiles, as listed above. Order of screens: KCNQ2 inh | KCNQ2 inh baseline
Profile of O=C(CSc1nnc(-c2ccccc2)n1-c1ccc(Cl)cc1)N/N=C/c1ccccc1C(=O)O → i | -1.8
Profile of C/C(=N\NC(N)=S)C1C2C3CC4C5CC(C42)C1C53 (stereo not drawn) → i | 0.03
Profile of COC(=O)c1c(NC(=S)NNS(=O)(=O)c2ccc(OC)cc2OC)sc2c1CCCCCC2 → i | -0.39
Profile of COc1cccc(-c2nn(-c3ccc(C)cc3)cc2C(=O)NCC(c2cccs2)N2CCOCC2)c1 (stereo not drawn) → -6.9* | 1.8*
Profile of CCC(C)(C)n1nnnc1C(C(C)C)N(Cc1cccnc1)Cc1ccco1 (stereo not drawn) → i | 1.2

Next section
Results follow in this order: KCNQ2 inh	KCNQ2 inh baseline
O=C(CSc1nnnn1-c1ccccc1)Nc1ncc(Cc2cc(Cl)ccc2Cl)s1
  i	0.28
Cn1cc(C[C@H](NC(=O)OC(C)(C)C)C(=O)N[C@@H](CO)Cc2ccccc2)c2ccccc21
  i	1.1
Cc1ccc(C(C(=O)NC2CCCCC2)N(Cc2ccco2)C(=O)Cn2cnc3ccccc32)cc1 (stereo not drawn)
  i	0.85
O=[N+]([O-])c1cccc(-c2nnc(-c3ccc4c(c3)OCO4)o2)c1
  i	2.4
COc1ccccc1C(C[N+](=O)[O-])c1c(N)n(C)c(=O)n(C)c1=O (stereo not drawn)
  i	-1.3
CCCn1cnc2c(=O)oc3ccccc3c21
  i	-0.46
CCCN(C(=O)c1c(CC)noc1C)c1c(N)n(Cc2ccccc2)c(=O)[nH]c1=O
  i	0.52
O=C(Cc1ccc(-c2ccccc2)cc1)NC(c1ccccc1)c1ccccc1
  i	2.4
CC(C)CCC(O)(CCC(C)C)C(=O)NNc1ccccc1
  i	-0.03
COc1ccccc1C(=O)OCC(=O)NC(C)CCc1ccccc1 (stereo not drawn)
  i	-0.53
Cc1nc2ccccc2nc1Nc1cccc(Cl)c1
  i	0.51
C=CCn1c(SCC(=O)c2cccs2)nc2sc(C)cc2c1=O
  i	2.4
C/C(CC(=O)Nc1ccc(C)c(Cl)c1)=N\NC(=O)Cc1cnc(N)s1
  i	0.13
O=C(Cc1ccc(Cl)cc1)NNC(=O)C1CC=CCC1C(=O)O (stereo not drawn)
  i	-1.3
COCCNC(=O)[C@@]1(Cc2ccccc2)C=C[C@@H](C)N1C(C)=O
  i	1.5
CCOC(=O)N1CCN(C(=O)c2ccc3nc(-c4ccccc4)c(-c4ccccc4)nc3c2)CC1
  i	1.4
Cc1cc(S(=O)(=O)N2CCN=C2c2ccccc2)ccc1F
  i	0.37
COc1ccccc1-c1nnc(NC(=O)OCC(C)C)s1
  i	1.3
CCOc1ccc(C(C)=O)cc1CN1C(=O)NC2(CCCCCC2)C1=O
  i	-1.6
COCCNC(=O)c1cnn2c(C(F)F)cc(-c3ccccc3)nc12
  i	1.2
Cc1cc(C)c2cc(C(=O)N3CCC(Cc4ccccc4)CC3)[nH]c2c1
  i	-0.93
O=[N+]([O-])c1ncccc1OCc1ccc(-c2ccccc2)cc1
  i	-1.8
Cc1cc(Cl)ccc1C(=O)C1CCCN(C(=O)CN2CCOC2=O)C1 (stereo not drawn)
  i	-1.8
Cc1ccc(NC(=S)NNC(=O)c2nn(C)cc2Cl)cc1
  i	1.7
CCCNC(=O)NC(=O)CSc1nnc(-c2c[nH]c3ccccc23)o1
  i	-0.15
Cc1ccn2cc(-c3cccc([N+](=O)[O-])c3)nc2c1
  i	0.78
CCOc1ccccc1CNC(=O)CCCn1ccc2cc(S(=O)(=O)N3CCCC3)ccc21
  i	-0.81
COc1ccc(N2CCN(C(CNC(=O)c3cccc(Cl)c3)c3cccnc3)CC2)cc1 (stereo not drawn)
  i	-3.1
Cc1cc2occ(CC(=O)NC3(C)CCS(=O)(=O)C3)c2cc1C (stereo not drawn)
  i	-2
CCOc1ccc(C2NC(=O)C(C#N)=C(S)N2c2cccc(C)c2)cc1OC (stereo not drawn)
  i	-0.83

Following part.
Compound,KCNQ2 inh,KCNQ2 inh baseline
C=CCOc1ccc(C2OC34CCCCC3C(C#N)(C#N)C2(C#N)C(=N)O4)cc1 (stereo not drawn),i,1.9
CCn1c(SCC(=O)NC(C)(C)C)nc(O)cc1=O,i,1.4
Cc1nn(Cc2ccccc2)c(Cl)c1C(=O)NCCc1ccc(Cl)cc1,i,-0.23
COc1ccc(Cl)cc1NC(=S)NC1CCCC1,i,-0.51
c1ccc2c(c1)CCCN2Cc1nnnn1C1CCCC1,i,0.02
COc1ccc(OC)c(NC(=O)[C@H]2CC=CC[C@H]2C(=O)O)c1,i,-1.7
NC(=NC1CCCCC1)NS(=O)(=O)c1ccccc1,i,0.02
CSCCC(NC(=O)c1ccc([N+](=O)[O-])cc1Cl)C(=O)OCC(=O)NCCCc1ccccc1 (stereo not drawn),i,0.59
CC(NCC1COc2ccccc2O1)C1COc2ccccc2O1 (stereo not drawn),i,-0.2
CSCCC(NC(=O)c1ccc([N+](=O)[O-])cc1Cl)C(=O)OCC(=O)NCC(F)(F)F (stereo not drawn),i,1.1
COc1ccc(Nc2nc(S(=O)(=O)c3ccc(C)cc3)c(Cl)s2)cc1,i,-0.05
OC1C2CN3CCN(C2)CC1(Cc1ccccc1)C3 (stereo not drawn),i,-0.85
COC(=O)c1cc2c(s1)-c1ccccc1CC2,i,2.2
N=C1C(c2nc(-c3ccc(Br)cc3)cs2)=C(O)CN1NC(=O)c1ccc([N+](=O)[O-])cc1,i,-0.93
CC1(C)C([N+](=O)[O-])C(c2ccc(Cl)cc2)NC(c2ccc(Cl)cc2)C1[N+](=O)[O-] (stereo not drawn),i,-1.3
Cc1cc(C)c(S(=O)(=O)N2CCOC2CNC(=O)C(=O)NCCc2c[nH]c3ccccc23)c(C)c1 (stereo not drawn),i,-3.7
CC1CCC(NC(=O)C2c3ccccc3C(=O)N2Cc2cccs2)CC1 (stereo not drawn),i,-1.9
Cc1ccc(/C=N/NC(=O)COc2ccc(Cl)c(C)c2)o1,i,0.83
O=C(c1cccc(F)c1)N1CCN(C(=O)C(c2ccccc2)c2ccccc2)CC1,i,2.3
O=C(NCc1ccc2c(c1)OCO2)c1nn(-c2ccccc2)c(=O)c2ccccc12,i,0.32
